# NPYLR7 ag: activates Aedes aegypti NPYLR7 receptor. HEK293T NPYLR7/Galpha15, GCaMP6s calcium fluorescence. 270,000 compounds, 0.15% hits. AID 1259423. activation, % at 10 µM; in the data active = activation above about 40%;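 also: 0% = vehicle and 100% = reference agonist at the receptor; some compounds past the cut are filed as inactive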
# NPYLR7 ag max-min: further read-out of NPYLR7 ag, marked with its call; activation, %; measured here: Max-Min RFU normalised activation; some inactives read as strong as hits;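 span of the calcium signal over five minutes; 0% = vehicle and 100% = native peptide agonist; compound fluorescence can raise it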
# Active calls of the source: *; & = joins results of further samples.
# Results follow in this order: NPYLR7 ag	NPYLR7 ag max-min
CCOC(=O)c1c(C)n(-c2ccc(C)cc2)c2cc(Br)c(O)cc12
→ 7	-2
COC(=O)CN(c1nc(C)cc(OC)n1)S(=O)(=O)c1ccccc1
→ -3	-5
CCN1CCN(c2c(CN(CCOC)C(=O)Cc3ccc(OC)cc3)c(C)nn2-c2ccccc2)CC1
→ 7	12
C/C(=N\Nc1ncnc2sc3c(c12)CCCC3)c1ccccc1
→ 4	6
Cc1csc(NC(=O)Cn2c(-c3ccncc3)nc3ccccc32)n1
→ -8	-14
CCN(Cc1noc(C)n1)C(=O)Cc1c(C)nn(-c2ccccc2)c1C
→ 0	2
COc1ccc(S(=O)(=O)N(Cc2ccco2)Cc2cc3c(cc2Cl)OCO3)cc1
→ -8	-14
COc1ccccc1C(=O)NCC1Cc2cccc(F)c2O1 (stereo unspecified)
→ 29	19
Clc1ccc(-c2noc(-c3ccc(-c4ccccc4)cc3)n2)cc1
→ -9	-13
COc1cccc(-n2nnc3c(=O)n(CC(=O)NCc4ccccc4)cnc32)c1
→ 8	9
O=C(Nc1ccccc1)N1CCCC(OCc2cccc(OC(F)(F)F)c2)C1 (stereo unspecified)
→ -3	-1
CCC1CN(C(=O)c2ccc(F)c(OC)c2)CCC(=O)N1Cc1ccccc1 (stereo unspecified)
→ 8	5
CCC(=O)N1CCN(S(=O)(=O)c2ccccc2Cl)CC1
→ 2	-1
COc1ccc(Cl)cc1-n1nnc(C(=O)Nc2ccc(C)cc2)c1C
→ 0	-1
CCN1CCC[C@H]1CNc1nc(-c2ccccn2)nc2c1CCN(C(C)=O)C2
→ 0	1
COC(=O)C1=C(C)N(c2ccc(Cl)cc2)C(=S)NC1c1cc(OC)c2c(c1)OCO2 (stereo unspecified)
→ 1	5
COc1ccc(C(=O)CNc2ccccc2C(C)=O)cc1
→ 2	1
CCc1nc(NC(=O)NCc2ccc(C)o2)nn1C
→ 11	2
NS(=O)(=O)c1ccc(NC(=O)CSc2nc3ccccc3[nH]2)cc1
→ -3	-11
Cc1ccc(OCCC(=O)NC2CCc3[nH]c4cc(Cl)cc(Cl)c4c3C2)cc1 (stereo unspecified)
→ 18	9
O=C(Nc1nnc(C2=COCCO2)o1)c1cc(Cl)cc(Cl)c1
→ -3	-6
COc1ccc(CN2CCCn3cccc3C2c2ccc([N+](=O)[O-])cc2)cc1OC (stereo unspecified)
→ 21	18
COc1cccc2c1OCCCN(Cc1cn[nH]c1C(=O)O)C2
→ 21	13
CN(CCCc1cnn(C)c1)S(=O)(=O)NCc1ccccc1
→ 6	4
Cc1ccccc1C(C)NC(=O)CN1CCc2sccc2C1C (stereo unspecified)
→ 0	11
CCOc1ccc(C2CCCN2C(=O)COc2ccccc2C#N)cc1 (stereo unspecified)
→ 9	3
Cc1cc(C(=O)O)ccc1NS(=O)(=O)c1cccc(S(=O)(=O)N(C)C)c1
→ 6	2
O=C1OCCCN1CCn1ccnc1-c1ccccn1
→ 12	4
Cc1cc(=O)n2nc(C)c(=O)n(N)c2n1
→ -4	-4
Cc1nc(N2CCC(NCC3OCCc4ccccc43)CC2)nc2cc(S(C)(=O)=O)ccc12 (stereo unspecified)
→ 36	17

# Retrieved one by one from the entries so far (6):
# Results follow in this order: NPYLR7 ag	NPYLR7 ag max-min
COc1ccc(CN2CCCn3cccc3C2c2ccc([N+](=O)[O-])cc2)cc1OC (stereo unspecified)
→ 21	18
COc1ccccc1C(=O)NCC1Cc2cccc(F)c2O1 (stereo unspecified)
→ 29	19
Cc1cc(=O)n2nc(C)c(=O)n(N)c2n1
→ -4	-4
COC(=O)CN(c1nc(C)cc(OC)n1)S(=O)(=O)c1ccccc1
→ -3	-5
CCc1nc(NC(=O)NCc2ccc(C)o2)nn1C
→ 11	2
O=C(Nc1nnc(C2=COCCO2)o1)c1cc(Cl)cc(Cl)c1
→ -3	-6

# (cont.)
# Results follow in this order: NPYLR7 ag	NPYLR7 ag max-min
Cc1cccc(-n2nc(C(=O)N(C)C3CCCCC3)c(=O)n(Cc3ccccc3F)c2=O)c1
→ 14	11
Clc1ccc(-c2noc(CN3CCSCC3)n2)cc1
→ -2	-3
Cc1cc(C)nc(SCc2ccc(C(=O)N3C4CCC3CC(Oc3cccc(C#N)c3)C4)cc2)n1 (stereo unspecified)
→ -8	-11
CC(NCc1ccc(-n2ccnc2)cc1)c1ccccc1F (stereo unspecified)
→ 12	6
Cc1ccc(NS(=O)(=O)c2ccc3c(c2)CCC(=O)N3)c(F)c1
→ -7	-8
CC(C)=CC(=O)N1CC[C@@H](c2sccc2C)[C@H](O)C1
→ 5	3
CCc1ccc(C2CCCCCN2C(=O)C2CC2c2cccnc2)o1 (stereo unspecified)
→ 2	2
O=C1CCCN1c1ccc(S(=O)(=O)Nc2ccc(F)cc2Cl)cc1
→ 0	-4
CCc1ccc(NC(=O)CN2CCc3cc(S(N)(=O)=O)ccc32)cc1
→ -7	-10
O=S(=O)(Nc1cccc2ccccc12)c1ccccc1Br
→ 2	1
COc1cc2c(cc1C(=O)NCc1cccnc1N(C)C)CCC2
→ 6	4
CCOC(=O)c1c(C)[nH]c(C(=O)COC(=O)Cn2c(C)csc2=O)c1C
→ -2	-4
COc1ccc(CN(CCc2c[nH]c3ccccc23)C(=O)CN(C(=O)c2cccc(C(F)(F)F)c2)C(C)C)cc1
→ 13	17
CCc1ccc(NC(=O)N2CCC3(CC2)C(=O)N(CC(=O)NCC2CCCO2)CN3c2ccccc2)cc1 (stereo unspecified)
→ 6	13
Cc1ccc(Cc2nc(CSc3nc4ccc([N+](=O)[O-])cc4s3)cs2)cc1
→ 25	29
O=C(NCCOc1cc(N2CCCC2)ncn1)NCc1ccccc1
→ -2	-3
C=CCNC(=O)C(NC(=O)c1cccc(C)c1)C1CCN(S(=O)(=O)c2ccc(C)cc2)CC1 (stereo unspecified)
→ 13	8
CCC(C)NC(=O)C1CSCN1S(=O)(=O)c1ccc(C)cc1C (stereo unspecified)
→ 1	0
CCc1c(C)nc(-n2nc(C)cc2C)n(CC(=O)NCCc2ccccc2)c1=O
→ 0	-3
CC(=O)c1c(C(C)=O)c(C)n(CCCCn2c(C)c(C(C)=O)c(C(C)=O)c2C)c1C
→ 3	1
CC(C)N(C)Cc1nnnn1CC(=O)N1CCN(C(=O)c2cccs2)CC1
→ 18&6	8&0
COc1ccccc1CCNC(=O)C1CCN(c2cc3oc4ccccc4c3cc2OC)C1=O (stereo unspecified)
→ 3	4
CC(C)C1CN(C(=O)CCn2ccc(=O)[nH]c2=O)CCCN1CC1CC1 (stereo unspecified)
→ 8	9
C/C=C/C=C/C(=O)NC(c1ccc(S(C)(=O)=O)cc1)c1ccc2c(c1)CCO2 (stereo unspecified)
→ -4	-13
COC(=O)c1ccccc1N(C)C(=O)C(C)N1C(=O)c2ccccc2S1(=O)=O (stereo unspecified)
→ -3	3
COc1cc(OC)c(CN(C)C(C)c2nc(C)sc2C)c(OC)c1 (stereo unspecified)
→ 2	0
COCc1c(C(=O)OCC(N)=O)sc2cccc(F)c12
→ -3	-4
CCn1c(CC2CCN(Cc3nccn3C)CC2)n[nH]c1=O
→ 0	0
COc1cc(C2Nc3ccccc3-c3nnc(SC)nc3O2)cc(Br)c1OC (stereo unspecified)
→ -1	-2
OC(COCc1ccccc1)CN1CCCCC1 (stereo unspecified)
→ 3	-2

# Single records, as listed above. Order of values: NPYLR7 ag, NPYLR7 ag max-min
# COC(=O)CN(c1nc(C)cc(OC)n1)S(=O)(=O)c1ccccc1 as listed: -3, -5
# Cc1ccc(OCCC(=O)NC2CCc3[nH]c4cc(Cl)cc(Cl)c4c3C2)cc1 (stereo unspecified) as listed: 18, 9
# C/C(=N\Nc1ncnc2sc3c(c12)CCCC3)c1ccccc1 as listed: 4, 6
# Clc1ccc(-c2noc(CN3CCSCC3)n2)cc1 as listed: -2, -3

# Other results
# Results follow in this order: NPYLR7 ag	NPYLR7 ag max-min
Cc1cc([N+](=O)[O-])nn1CC(=O)N1CCN(Cc2ccccc2)CC1
→ -2	-1
c1ccc(CCNC2=NCCS2)cc1
→ 3	1
Cc1cc(C)n(-c2cccc(-c3nccn3C(C)c3ncnn3C)c2)n1 (stereo unspecified)
→ 3	-4
CC(C)N(CCSc1ccccc1)C(=O)c1ccc2[nH]c(=O)c(=O)[nH]c2c1
→ 3	-1
Cc1cccc(OCCCn2c(CCCO)nc3ccccc32)c1
→ -2	4
Cc1cccc(-c2noc(CN(C)Cc3ccc(Oc4ncccn4)cc3)n2)c1
→ 5	-8
COc1ccc(C2CCCN2C2=NCc3cnn(C(C)(C)C)c3N2)cc1 (stereo unspecified)
→ 7	0
CCCN1C(c2ccccc2F)=NS(=O)(=O)c2cc(N)ccc21
→ 24	9
Cc1ccc(C(=O)N2CCC3(CCCO3)CC2)cc1N1CCNC1=O
→ 9	6
O=C1NCCN(C(=O)Cc2ccc(Cl)cc2Cl)C1c1cccs1 (stereo unspecified)
→ 2	0
Cc1cccc(N=Cc2nc(-c3ccccc3)oc2O)c1
→ -10	-16
COC(=O)c1cc(C(=O)OC)cc(N2C(=O)c3ccc(-c4nc5ccccc5c(=O)o4)cc3C2=O)c1
→ 5	15
Cc1ccc(C)c(OCCCC(C)(C)C(=O)NCCCOc2cccc([N+](=O)[O-])c2)c1
→ -13	-21
O=C(NCc1ccc(Cl)cc1)c1cncn1-c1cccc(-c2cccc(OC(F)(F)F)c2)c1
→ 7	-4
CC(C)(C)c1cc2nc(-c3ccc(F)cc3)cc(C(=O)Nc3ccccc3F)n2n1
→ 2&19	2&17
Clc1ccc(-c2noc(CN3CCCSc4ccccc43)n2)cc1
→ 1	-1
CCCCCn1c(=S)[nH]c2sc3c(c2c1=O)CCC3
→ 6	15
CCCCc1ccc(Nc2nnc(SCC(=O)NCC)s2)cc1
→ 2	6
COC12C=C(C)C(C(C)=C1)c1c(F)c(F)c(F)c(F)c12
→ 5	5
CCOC(=O)N1CCN(C(=O)CSc2ccc3nnc(-c4ccc(OCC)cc4)n3n2)CC1
→ 15	15
Cn1cc(NC(=O)CN2CCc3onc(-c4ccc5c(c4)OCO5)c3C2)cn1
→ -6	-10
Cc1[nH]c(=O)[nH]c(=O)c1CN1CCC2(CCCN(CCC3CCCCC3)C2)C1 (stereo unspecified)
→ 20	7
CC(C)C[C@@H](CO)n1ccnc1-c1ccccc1Cl
→ 19	11
CCc1noc(C)c1C(=O)N1CCC(O)(CN(C)C)C1 (stereo unspecified)
→ 18	15
O=C(NCCCN1CCCC1=O)C(C1CCCC1)N1CCN(C(=O)CCc2ccccc2)CC1 (stereo unspecified)
→ -1	3
COCCN(Cc1nccs1)C(=O)CC1COCCN1 (stereo unspecified)
→ 6	4
Cc1cc(C)n(-c2cccc(CN3CCC(N)(C(=O)O)C3)c2)n1 (stereo unspecified)
→ 7	4
COC(=O)c1cccc(CSc2nnc(-c3ccccc3F)n2-c2ccccc2C)c1
→ -2	0
CC(=O)Nn1cnc2c(cnn2-c2cccc(Cl)c2)c1=O
→ 5	0
Cn1c(=O)c2c(SCC(=O)Nc3ccccc3F)nc(-c3ccccc3F)nc2n(C)c1=O
→ -5	-8
CCn1ccc(C(=O)N2CCc3c(nc(-c4ccccn4)nc3N(C)C)C2)n1
→ 1	-3
CNC(=O)c1ccc(S(=O)(=O)NC(c2ccc3c(c2)OCCCO3)C(C)C)cc1 (stereo unspecified)
→ 0	-3
CC1(C2CC2)NC(=O)N(CC(=O)NCc2ccc(-c3ccc(Cl)cc3)o2)C1=O (stereo unspecified)
→ 11	4
CCCCOc1ccc(C(=O)Nc2c(C)nc3ccccn3c2=O)cc1
→ 1	0
CCCCn1c(C)cn2c3c(=O)n(CCC(=O)OCC)c(=O)n(C)c3nc12
→ 3	1
CC(C)NC(=O)C1(C)CCN1Cc1cccc(C#N)c1 (stereo unspecified)
→ 3	1
O=C(NCCO)Nc1cc(Cl)ccc1SCC(F)(F)F
→ -2	-3
CCOC(=O)COc1cc2c(-c3cc4ccccc4o3)cc(=O)oc2cc1C
→ 0	-4
CC=CCn1c(SCC(=O)OCc2ccccc2)nc2c1c(=O)[nH]c(=O)n2C
→ -3	-7
CC(=O)C[N+]1=C(C)c2ccc(C)n2CC1
→ 0	-1
Cc1nc(C(=O)N2CCC3(CCCN(CC4CCC4)C3=O)C2)cs1 (stereo unspecified)
→ 17	6
CC(=O)NCCCC(=O)N1CCCN(C2CCCCC2)CC1
→ 1	-1
O=C(c1ccnc(Cl)c1)N1CCN(c2nccc(-c3ccco3)n2)CC1
→ 3	5
Cc1cc(C(=O)COC(=O)C2CC3CCCC(C2)C3=O)c(C)n1C (stereo unspecified)
→ 2	3
CCCCCCSc1nnc2nc(C)cc(C)n12
→ -4	-5
CCOC(=O)c1ccc2c(c1)nc(SCc1ccc(Br)cc1)n2Cc1cccc(F)c1
→ 4	4
Cc1noc(C)c1NC(=O)C(C)(C)Oc1cccc(Cl)c1
→ 6&5	3&2
CC(OC(=O)CCS(=O)(=O)c1ccccc1Cl)C(N)=O (stereo unspecified)
→ 1	0
CN1CCCc2cc(C(CNS(=O)(=O)c3cccs3)N(C)C)ccc21 (stereo unspecified)
→ 7	4
COc1cccc(-c2nnc(SCc3ccc(C(=O)NCc4ccncc4)cc3)n2-c2ccccc2F)c1
→ 20	16
Cc1ccc(-n2c(Cc3ccccc3)nnc2SCC(=O)N2CCOCC2)cc1
→ 9	13
CCn1nc(C)c(NC(=O)CN2CCC(Oc3ncccn3)CC2)c1C
→ 2	-2
NC(=O)c1ccccc1COC(=O)c1ccc(N2CCOC2=O)cc1
→ 9	9
CCN(CC)c1ncccc1CNC(=O)C1CCCN(C)C1 (stereo unspecified)
→ -1	-1
CC(C)Cn1c(CN(C)Cc2ncc[nH]2)nc2ccccc21
→ 1	13
CC(C)c1cc(CN2CCC(N3CCC(C(=O)NCc4ccccn4)CC3)CC2)[nH]n1
→ 9&1	10&0
O=C(c1cncc(-c2ccn[nH]2)n1)N1CCCCC1
→ 12	9
Cc1cccc(-c2cnc(C(O)c3ccc(F)c(C)c3)[nH]2)c1 (stereo unspecified)
→ 2	1
CCc1ccc(S(=O)(=O)N2CCC(Cc3ccc(NC(C)=O)cc3)CC2)cc1
→ 3	-4
C[N+]1=C2C=CC=CC=C2OC12C([N+](=O)[O-])=CC([N+](=O)[O-])c1ccccc12 (stereo unspecified)
→ -12	-18

# From PubChem

# The list is partial (hit frequency here may not be typical).
